Source: PubChem (National Center for Advancing Translational Sciences (NCATS))
TRPML1 inh: qHTS for Inhibitors of the Human Mucolipin Transient Receptor Potential 1 (TRPML1) | Mucolipin-1 (Homo sapiens), Q9GZU1 | TRPML1-inducible cells, Ca2+ dye fluorescence, FDSS; hits give low values; inhibition of EC80 agonist-evoked calcium signal | activity change, negative = inhibition, % (test concentration not listed) | actives 0.02% (n = 390,000) | AID 624415, 2012; in the data active means activity change below about -50%; inconclusive means about -30% to -50%; inactive means above about -30%;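 note: stimulus is agonist 54-4 at its EC80 concentration; % is set by controls: 0 for no effect and ±100 for the full control effect; compound concentration not given in the record; the text of the record puts the active cut at -80%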
Target sequence (Q9GZU1 whole entry, looked up): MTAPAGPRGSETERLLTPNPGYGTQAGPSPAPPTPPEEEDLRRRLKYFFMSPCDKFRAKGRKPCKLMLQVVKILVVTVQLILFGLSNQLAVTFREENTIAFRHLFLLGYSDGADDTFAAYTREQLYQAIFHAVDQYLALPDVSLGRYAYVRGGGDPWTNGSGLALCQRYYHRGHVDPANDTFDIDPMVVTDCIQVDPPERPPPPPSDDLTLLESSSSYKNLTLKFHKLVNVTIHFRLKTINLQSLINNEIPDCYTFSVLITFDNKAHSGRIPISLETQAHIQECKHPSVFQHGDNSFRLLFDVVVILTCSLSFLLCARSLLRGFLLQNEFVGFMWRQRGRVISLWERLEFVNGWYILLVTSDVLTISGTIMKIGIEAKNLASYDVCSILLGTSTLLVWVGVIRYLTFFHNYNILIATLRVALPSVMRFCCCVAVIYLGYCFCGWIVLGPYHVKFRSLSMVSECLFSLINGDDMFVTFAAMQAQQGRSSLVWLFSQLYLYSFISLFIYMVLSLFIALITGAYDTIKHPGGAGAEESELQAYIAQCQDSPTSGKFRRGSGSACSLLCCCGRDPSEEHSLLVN
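TRPML1-DL cells, Tet-induced overnight (~16 h, 37 °C) at 1,500 cells/well, were loaded with Ca8 no-wash dye plus quencher for 45-90 min at room temperature. Compounds were pinned during FDSS kinetic reading; agonist 54-4 at EC80 (4 uM final) then added.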
Six1-Eya2 inh: qHTS Assay for Inhibitors of the Six1/Eya2 Interaction. Homeobox protein SIX1 (Homo sapiens) + Protein phosphatase EYA2 (Homo sapiens), …. actives 0.56% (n = 360,000). AlphaScreen GST-Six1/His-Eya2 binding, biochemical; hits give low values; control for the full effect not named in the record. activity change, % (concentration not given with the values); in the data active = activity change below about -65%; inconclusive = about -30% to -65%; inactive = above about -30%; note: % is set by controls: 0 for no effect and ±100 for the full control effect
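Homogeneous AlphaScreen proximity assay pairing GST-Six1 with His-tagged Eya2 (added as 5X mix: 250 nM and 500 nM) in 50 mM Tris pH 8.0, 300 mM NaCl, 1 mM TCEP. Glutathione donor and nickel acceptor beads; 1 h, 37 °C, dark.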
D2 ag: Beta-Arrestin HTS for Positive Allosteric Modulators of the Human D2 Dopamine Receptor: Agonists. D(2) dopamine receptor (Homo sapiens), P14416. DiscoveRx PathHunter D2 beta-arrestin, luminescence, 90 min; 100% = 57 uM dopamine signal. activation, % (test concentration not listed). actives 0.084% (n = 360,000); in the data active = activation above about 40%; inconclusive = about 15% to 40%; inactive = below about 15%; note: compound concentration not given in the record; the text of the record calls up to 30% inactive
Target sequence (P14416 whole entry, looked up): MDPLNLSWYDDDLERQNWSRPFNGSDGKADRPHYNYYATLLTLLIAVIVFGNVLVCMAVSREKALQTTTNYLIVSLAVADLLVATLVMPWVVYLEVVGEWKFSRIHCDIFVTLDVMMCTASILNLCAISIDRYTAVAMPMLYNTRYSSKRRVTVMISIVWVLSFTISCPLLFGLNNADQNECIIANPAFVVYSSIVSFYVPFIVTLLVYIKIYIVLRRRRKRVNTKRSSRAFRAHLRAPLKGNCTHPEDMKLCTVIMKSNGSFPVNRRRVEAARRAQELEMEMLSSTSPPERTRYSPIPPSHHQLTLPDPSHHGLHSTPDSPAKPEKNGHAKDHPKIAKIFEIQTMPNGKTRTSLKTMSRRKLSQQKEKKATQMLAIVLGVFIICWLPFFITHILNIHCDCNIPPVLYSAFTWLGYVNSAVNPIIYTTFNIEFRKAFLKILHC
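Agonist mode: compounds alone added to overnight-plated D2 PathHunter cells for 90 min at 37 C, with 57 uM final dopamine (EC100) defining full response. Beta-arrestin recruitment detected by chemiluminescent reagent, read after 1 h at ambient temperature.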
PINK1 modulator: A Quantitative High throughput Screen to Identify Chemical Modulators of PINK1 Expression | AID 624263, 2012 | PINK1 immunofluorescence, high-content cytometry, 24 h | Potency, µM (titrated, usually from 76.6 µM), for the others: at the top dose activation (PINK1 increase), most hits filed as activators | actives 0.2% (n = 410,000); active = well fitted activation curve with a large enough effect; inconclusive = small, poorly fitted or top-dose-only effect; inactive = flat fitted curve, though single readings scatter; cell line not stated here;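 note: potency is the fitted concentration of half-maximal effect; % of control where 0% means no effect; nearly all actives have a fitted effect of over 65% in size; a mitochondrial uncoupler was the plate control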
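A stable cell line was treated with compounds at 5 concentrations for 24 hours, with CCCP as control. PINK1 levels and mitochondrial localization were measured by immunofluorescence with mitochondrial, cell and nuclear markers after fixation, read by laser-scanning cytometry.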
TRPML1 ag: qHTS for Agonists of the Human Mucolipin Transient Receptor Potential 1 (TRPML1). TRPML1-expressing cells, Ca2+ dye fluorescence, FDSS; host cell line not named in the record; reference of the full effect not given here. activation, % (concentration not given with the values). actives 0.12% (n = 410,000); in the data active = activation above about 50%; inconclusive = about 30% to 50%; inactive = below about 30%; note: 0% is about no effect; the text of the record puts the active cut at 80%
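Tetracycline-induced TRPML1-DL cells are seeded and incubated overnight before loading with a no-wash Ca2+ dye and quencher. Agonist activity is taken from the 110 s fluorescence read following compound pin-transfer on an FDSS, before EC80 54-4 challenge.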
CtBP-E1A blk: qHTS Assay for Inhibitors of the CtBP/E1A Interaction; CtBP / adenovirus E1A interaction (AlphaScreen); AlphaScreen GST-E1A/His-CtBP binding, 1536-well; hits give low values; control for the full effect not named in the record; activity change, % (no concentration beside the values); actives 0.49% (n = 340,000); AID 651724, 2012; in the data active means activity change below about -65%; inconclusive means about -30% to -65%; inactive means above about -30%; note: % is set by controls: 0 for no effect and ±100 for the full control effect; compound concentration not given in the record
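Homogeneous bead-based format: GST-tagged E1A captured on glutathione donor beads, His-tagged CtBP on nickel acceptor beads; compounds precede bead addition by 2 h at 37 °C.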
Numbers without * were called inactive; ? = inconclusive; nt = no result given; & = joins results of further samples; [ ] = remark or other dose.

SMILES	TRPML1 inh	Six1-Eya2 inh	D2 ag	PINK1 modulator	TRPML1 ag	CtBP-E1A blk
CCCC12C(=O)C(C)(C(c3ccccc3)=C1c1ccccc1)C1C(=O)N(c3ccc(C)cc3)C(=O)C12 (stereo not drawn)	-7	-9	-1.4	4.7%	0.3	-6
Cc1c(N=C2SC(CC(=O)Nc3ccccc3)C(=O)N2CCN2CCOCC2)c(=O)n(-c2ccccc2)n1C (stereo not drawn)	-1	11	-4.2	1.2%	-0.8	nt
COCc1nnc(NC(=O)c2ccc(OC)cc2OC)s1	-10	-1	-5.5	2.3%	-0.6	1
CCCCn1nnnc1SCC(=O)N1CCOCC1	38	-2	-4.2	-0.2%	-0.7	7
CCC(=O)N1CCc2cc(-c3csc(NC(=O)c4ccco4)n3)ccc21	9	-9	0.0	?	-1.1	-1
CC(=O)Nc1ccc(NC(=O)CN(c2cccc([N+](=O)[O-])c2)S(C)(=O)=O)cc1	18	2	-5.6	0.2%	4.5	4
CC1CCCC(NC(=O)COC(=O)c2cc(S(=O)(=O)N3CCCCC3)ccc2N2CCOCC2)C1C (stereo not drawn)	2	-3	-1.7	1.7%	0.2	7
O=C([C@H]1O[C@@H](n2ccc(=O)[nH]c2=O)[C@H](O)[C@@H]1O)N1CCC(F)(F)CC1	nt	0	-1.8	0.6%	-0.5	4
O=C(Nc1ccccc1-c1ccccc1)c1ccc(NC(=O)c2ccco2)cc1	4	0	3.7	-1.0%	1.7	0
Cc1nc2c(C(=O)O)cnn2c(C)c1Cc1ccccc1F	-25	3	-3.3	2.3%[38.3 µM]	2.0	0
Nc1c(Cl)ncnc1NCc1cccnc1	-8	-1	-1.6	2.9%	-0.1	6
CN1CCC(N(C)C(=S)Nc2ccc(F)cc2)CC1	-3	-2	-1.5	1.7%	0.3	nt
Cc1nc(Sc2nnnn2-c2ccccc2)c(C#N)c(C)c1C	-3	0	-5.8	2.1%	-1.2	2
COc1ccc(NC(=O)C2CCN(S(=O)(=O)c3cccc4nonc34)CC2)cc1OC	-11	-4	-0.5	21%	0.4	-5
O=S(=O)(NCCCc1ccccc1)c1ccc(F)c(F)c1	-5	17	-1.4	5.9%	-0.8	14
N#Cc1c(N2CCN(c3ccc([N+](=O)[O-])cc3)CC2)[n+](=O)c2ccc(Cl)cc2n1[O-]	24	4	?	15%	0.4	0
COc1c(C)cccc1C(=O)Nc1cccc2ccc(C)nc12	-7	nt	nt	-0.2%	2.6	nt
CN(/N=C/c1ccncc1)C1=NS(=O)(=O)c2ccccc21	15	-88*	-3.6	23%	-0.9	-86*
COc1ccc(NC(=O)[C@@H]2CCCN2C(=O)c2cccs2)cc1S(=O)(=O)N1CCCCC1	7	-2	0.1	1.7%	-1.4	nt
CC1CCN(C(=O)CCCC(=O)N2CCC(C)CC2)CC1	0	3	-0.4	-1.2%	-0.4	1
CCOc1ccc(C(=O)NCCSc2c(C)[nH]c3ccccc23)cc1OCC	14	nt	nt	0.4%	1.2	nt
N#Cc1ccc(OCC(O)CS(=O)(=O)c2ccc(F)cc2)cc1 (stereo not drawn)	3	5	-0.4	-0.3%	-0.5	1
Cc1occc1C(=O)NNC(=O)Cc1ccccc1	-1	1	-1.4	0.1%[38.3 µM]	0.2	7
COc1cccc(C2C(C(=O)c3cccs3)=C(O)C(=O)N2CCN2CCOCC2)c1 (stereo not drawn)	-5	7	-2.0	3.6%	0.9	nt
COc1ccc(S(=O)(=O)NCC2CCCN(C(=O)CCC(F)(F)F)C2)cc1 (stereo not drawn)	11	1	-1.5	-1.6%	1.0	-13
CCOC(=O)CC(=O)CSc1nc2c(sc(=S)n2-c2ccc(OCC)cc2)c(=O)[nH]1	5	-14	0.8	-2.4%	-1.0	10
COC(=O)C1=C(C(=O)OC)[C@@H]2Nc3ccccc3[C@@]23C[C@@H](C(=O)OC)N(C(=O)COCc2ccccc2)C3=N1	23	-1	0.4	6.8%	0.3	3
O=C(CSc1ccc(-c2nc3ccccc3[nH]2)cn1)Nc1ccc(S(=O)(=O)N2CCCC2)cc1	10	-16	8.2	-3.7%	1.1	3
COc1ccc(C)c(S(=O)(=O)Nc2ccc(OCC(=O)O)cc2)c1	4	6	0.3	0.8%	-0.1	-1
O=C(Nc1ccc(N2CCOCC2)cc1)C1CC(=O)N(c2ccccc2)C1 (stereo not drawn)	-8	-3	-3.6	1.0%	1.2	nt
O=C(CN1CCCCCC1)Nc1nc2ccccc2s1	18	-2	3.6	2.6%	-0.3	-4
COc1cc(C2c3cc4c(cc3OC(C)(N3CCCC3)C2C)OCO4)cc(OC)c1OC (stereo not drawn)	3	-26	-1.3	2.8%	1.2	-7
COC(=O)c1c(Oc2ccc(C(C)=O)cc2)nnc(-c2ccccc2)c1-c1ccccc1	-7	nt	nt	-0.7%	-0.1	nt
O=C(c1cccc(Br)c1)N1CCN(c2ccc(N3CCOCC3)nn2)CC1	4	-2	-2.9	2.3%	0.9	-12
CCC(C)NC(=O)Cn1c(=O)cc(-c2ccccc2)c2c(C)nn(C)c21 (stereo not drawn)	-8	nt	nt	1.3%	1.5	nt
CC(C)c1cccc(C(C)C)c1NC(=O)CNCc1ccccc1F	20	-6	-4.8	1.1%	1.5	nt
CC(=O)NC1c2ccccc2C(=O)N1Cc1ccccc1 (stereo not drawn)	-1	1	1.8	-0.5%	-0.2	nt
COc1cc(C(CC(=O)N2CCCC2)c2c(OC)cc(OC)c3c(-c4ccccc4)cc(=O)oc23)cc(OC)c1OC (stereo not drawn)	39&36	-4	-0.8	6.9%	1.3&0.1	-6
C[C@H](CO)N1C[C@H](C)[C@H](CN(C)C(=O)Nc2ccc(C(F)(F)F)cc2)OCc2cnnn2CCCC1=O	10	5	-0.5	2.5%	-0.6	7
COc1cc(SC)ccc1C(=O)NCCOc1ccc(Cl)cc1	14	0	-3.4	0.6%	0.1	-11

4 structures out of the list, ordered by SMILES length, rising:
SMILES	TRPML1 inh	Six1-Eya2 inh	D2 ag	PINK1 modulator	TRPML1 ag	CtBP-E1A blk
CC(C)c1cccc(C(C)C)c1NC(=O)CNCc1ccccc1F	20	-6	-4.8	1.1%	1.5	nt
O=C(c1cccc(Br)c1)N1CCN(c2ccc(N3CCOCC3)nn2)CC1	4	-2	-2.9	2.3%	0.9	-12
COc1ccc(S(=O)(=O)NCC2CCCN(C(=O)CCC(F)(F)F)C2)cc1 (stereo not drawn)	11	1	-1.5	-1.6%	1.0	-13
CCOC(=O)CC(=O)CSc1nc2c(sc(=S)n2-c2ccc(OCC)cc2)c(=O)[nH]1	5	-14	0.8	-2.4%	-1.0	10

Continued:
SMILES	TRPML1 inh	Six1-Eya2 inh	D2 ag	PINK1 modulator	TRPML1 ag	CtBP-E1A blk
Cc1ccc(N(CC(=O)NCc2ccccc2Cl)S(=O)(=O)c2c(C)noc2C)cc1	6	1	3.9	-0.7%	2.6	1
CCC(=O)OCCNc1cc(Sc2nc3ccccc3[nH]2)c2nonc2c1[N+](=O)[O-]	5	-25	-7.1	-2.6%	0.1	-2
CC(C)C[C@H](N)C(=O)N1CCC(C(=O)N[C@H](C(=O)NC(C)c2ccccc2)C(C)C)CC1 (stereo partly drawn)	nt	3	-2.1	-0.9%	nt	6
Cc1ccccc1C(=O)NC(=S)Nc1sc2c(c1C#N)CCCC2	7	-25	-2.3	-2.2%	-0.1	2
O=C(OCC(=O)N1CCCCCC1)c1ccc[nH]c1=O	14	4	1.6	0.6%	1.7	11
CS(=O)(=O)n1nc(-c2ccccc2)nc1N	5	0	0.8	nt	-0.5	7
Cc1cccc(-n2c(SCC(N)=O)nc3c(oc4ccccc43)c2=O)c1	3	nt	nt	5.6%	-1.2	nt
COc1ccc(C(CC(=O)Nc2ccccn2)N2Cc3ccccc3C2=O)cc1OC (stereo not drawn)	-12&10	-3	0.4	-0.2%&-5.7%	0.3&1.6	nt
O=S(=O)(c1ccc(Cl)cc1)c1nc(-c2ccccc2)oc1N1CCN(c2ccccc2)CC1	40	nt	nt	0.2%	-0.8	nt
CCCOc1ccc(C(=O)Nc2ccc3oc(-c4ccc(N(C)C)cc4)nc3c2)cc1	-6	nt	nt	-0.4%	1.3	nt
COc1ccccc1NC(=O)CCc1nnc2ccc(N3CCC4(CC3)OCCO4)nn12	0	12	0.7	-0.1%	-0.1	-14
O=C(Cn1cc(C(=O)c2ccco2)c2ccccc21)NC1CC1	22	-4	-2.7	3.9%	-0.9	9
CCOCCCNC(=S)N(CCCN(C)C)Cc1cc2cc3c(cc2[nH]c1=O)OCCO3	-4	4	-0.1	0.6%	0.0	-9
CCOC(=O)C(=O)Nc1ccccc1C(=O)NC(C)C	-21	-2	1.5	0.1%[38.3 µM]	3.5	2
CCCn1c2ccccc2c2cnn(CC(=O)N(CCCOC(C)C)Cc3ccco3)c(=O)c21	-1	nt	nt	-0.6%	3.8	nt
O=C(NC1CC(=O)N(c2ccc(F)cc2)C1)c1ccc2c(c1)OCO2 (stereo not drawn)	-16	nt	nt	0.5%	-0.4	nt
CCOC(=O)c1nn(-c2c(C)n(C)n(-c3ccccc3)c2=O)cc1O	-9	-3	2.8	-1.1%	-0.2	1
CC1(C)N=C2C(=[N+]1[O-])CCC/C2=N\O	-1	3	-2.5	-0.1%	-0.5	8
COc1ccc(NC(=O)c2nc(-n3nc(C)cc3C)ccc2Cl)cc1Cl	32	-4	-0.3	16%	2.8	1
CCOc1ccccc1N1CCN(CC(O)COc2ccc3c(C)cc(=O)oc3c2)CC1 (stereo not drawn)	8	-2	13	3.0%[38.3 µM]	-0.7	1
O=C(NCN1CCCCC1)c1cnccn1	5	3	-1.9	-1.6%	-0.5	2
COc1ccc(S(=O)(=O)N2CCN(c3cnccn3)CC2)cc1	15	-7	-0.5	-1.9%	0.5	-2
COc1ccc(NC(=O)CSc2n[nH]c(N)n2)c([N+](=O)[O-])c1	-2	2	0.2	-2.1%[38.3 µM]	2.0	-1
Cc1ccccc1-c1csc(C(O)c2ccc(F)cc2)n1 (stereo not drawn)	nt	-3	-2.8	14%	2.3	5
Cc1cc(C)n2nc(CCc3ccccc3)nc2n1	5	2	-1.2	1.3%[38.3 µM]	-0.1	-1
C=C1CCC[C@]2(C)C[C@H]3OC(=O)C(CNC(C)CC)[C@H]3CC12 (stereo partly drawn)	-9	16	4.2	3.1%	0.5	nt
COC(=O)Cn1c(N)[n+](Cc2ccccc2)c2ccccc21	17	10	-2.5	0.4%	0.0	nt
CCN1C(=O)C(O)(c2c(C)[nH]c3ccccc23)c2ccccc21 (stereo not drawn)	-7	nt	nt	?	1.6	nt
